From PubChem BioAssay
NPYLR7 ag = agonists of mosquito NPYLR7 receptor, primary screen, cell-based, Aedes aegypti, calcium fluorescence, mosquito biting behavior; HEK293T NPYLR7/Galpha15, GCaMP6s calcium fluorescence; activation, % at 10 µM; 270,000 tested, 0.15% active; in the data active means activation above about 40%;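 further: 0% = vehicle and 100% = reference agonist at the receptor; some compounds past the cut are filed as inactive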
NPYLR7 ag max-min = recorded beside NPYLR7 ag, whose call it bears; activation, %; measured here: Max-Min RFU normalised activation; some inactives read as strong as hits;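 span of the calcium signal over five minutes; 0% = vehicle and 100% = native peptide agonist; compound fluorescence can raise it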
Numbers without * were called inactive; & = joins results of further samples.

Start of the listing, in advance (3 entries):
SMILES	NPYLR7 ag	NPYLR7 ag max-min
COc1ccccc1N1CC(O)(c2cccs2)[N+]2=C1CCCC2 (configuration not stated)	-3	-6
CCCCOc1ccccc1NC(=O)Oc1ccccc1	-4	1
COc1ccc2[nH]cc(C(=O)c3ccncc3)c(=O)c2c1	6	12

This part in full, previewed entries included:
SMILES	NPYLR7 ag	NPYLR7 ag max-min
COc1ccccc1N1CC(O)(c2cccs2)[N+]2=C1CCCC2 (configuration not stated)	-3	-6
CCCCOc1ccccc1NC(=O)Oc1ccccc1	-4	1
COc1ccc2[nH]cc(C(=O)c3ccncc3)c(=O)c2c1	6	12
COc1cc2c(cc1OC)C(c1c(F)cccc1Cl)N(C(=O)c1ccc(F)c(F)c1)CC2 (configuration not stated)	19	8
Cc1cc(NC(=O)CN2CCOC(C)C2)ccc1Br (configuration not stated)	6	2
Cn1ccnc1-c1c(-c2ccccc2)ncn1CCC(=O)NC1CCCCC1	-4	-4
Cc1cc(NC(=O)c2ccccc2)n(-c2ncnc3c2cnn3-c2cccc(C)c2C)n1	2	1
CCNc1nc(NCC)nc(OCCNC(=O)COc2ccc(Cl)cc2Cl)n1	4	1
COc1ccc(C=Cc2sc3ccccc3[n+]2CCCS(=O)(=O)O)cc1OCc1ccccc1	5	3
CCC(C)C(NC(=O)c1cccc(C(F)(F)F)c1)C(=O)Nc1nnc(-c2ccc(Br)cc2)s1 (configuration not stated)	19	20
COc1cc(NS(C)(=O)=O)cc(Br)c1O	-1	-2
COCC(C)Nc1nc(C23CC4CC(CC(C4)C2)C3)cs1 (configuration not stated)	8	7
CC1CCC(N(C)C(=O)CCn2c(=O)[nH]c(=O)c3ccccc32)CC1 (configuration not stated)	-1	-2
Cc1ccc(C(=O)Nc2ccc(N3CCN(C(=O)c4cccc(C)c4C)CC3)nc2)cc1	-1	-4
COCCCN(CC(=O)N(CCc1c[nH]c2ccccc12)Cc1ccc(OC)cc1)C(=O)c1ccc(F)cc1	-6	3
CC(C)CNC1CCN(c2ccc(NC(=O)c3cccc(Cl)c3)cc2)CC1	7	5
COC(=O)c1sc(S(=O)(=O)N2CCN(CCO)CC2)c(C(=O)OC)c1C	3	3
CCN1CC(C)C(=O)N(Cc2cccnc2)C1=O (configuration not stated)	6	3
Cc1nc(N2CCOCC2)ncc1-c1cc(=O)[nH]c(N2CCC(C)CC2)n1	2	34
CCC(NC(=O)NCC(O)c1ccccc1F)c1c(C)nn(C)c1C (configuration not stated)	4	2
COC(=O)c1sc(NC(=O)c2ccc3nccn3c2)cc1C	1	1
CN(C)c1nc2c(Br)c(Br)c(Br)c(Br)c2[nH]1	-5	-7
c1ccc2c(c1)C(=NCC1CCCO1)NC2=NCC1CCCO1 (configuration not stated)	-2	-4
CC(c1ccc(Cl)cc1Cl)N(C)C(=O)NCCc1cnn(C)c1 (configuration not stated)	3	7
CNc1nc2cnc(Nc3ccc(O)cc3)cc2n1-c1cc(OC)c(OC)c(OC)c1	-18	-15

Complete entries, quoted from the list. Order of values: NPYLR7 ag	NPYLR7 ag max-min
Cn1ccnc1-c1c(-c2ccccc2)ncn1CCC(=O)NC1CCCCC1 in the list: -4	-4
CCC(NC(=O)NCC(O)c1ccccc1F)c1c(C)nn(C)c1C (configuration not stated) in the list: 4	2

4 of the compounds above, bar-delimited:
mol | NPYLR7 ag | NPYLR7 ag max-min
Cc1cc(NC(=O)c2ccccc2)n(-c2ncnc3c2cnn3-c2cccc(C)c2C)n1 | 2 | 1
COc1ccc(C=Cc2sc3ccccc3[n+]2CCCS(=O)(=O)O)cc1OCc1ccccc1 | 5 | 3
Cc1nc(N2CCOCC2)ncc1-c1cc(=O)[nH]c(N2CCC(C)CC2)n1 | 2 | 34
COc1cc2c(cc1OC)C(c1c(F)cccc1Cl)N(C(=O)c1ccc(F)c(F)c1)CC2 (configuration not stated) | 19 | 8

(further entries)
SMILES	NPYLR7 ag	NPYLR7 ag max-min
Cc1ccc(SC(C)C(=O)NCc2c(C)cc(C)[nH]c2=O)cc1 (configuration not stated)	0	1
CN(C)c1ncccc1CNC(=O)CCc1ccco1	14	5
CCn1cc(C(=O)N(CCOC)Cc2cccs2)c(=O)c2ccc(C)nc21	6	3
CC(C)COc1nc(-c2ccccc2F)n(-c2ccc(NC(=O)c3cccc(Br)c3)cc2)n1	6	7
CN1C(=O)[C@]2(C)[C@H](c3ccccc31)[C@@H](C(N)=O)CN2C(=O)CC(C)(C)C	2	7
Cn1c(SCC(=O)N2CCNC2=O)nnc1-c1ccco1	-1	0
O=C(OCc1nc2sc3c(c2c(=O)[nH]1)CCCC3)c1cc2c(s1)CCC2	5	1
CN(C)CC/C=C1/c2ccccc2COc2ccccc21	-10&-12&-5	-13&-19&-5
COc1ccc(CC(=O)Nc2cc(C)nn2-c2nc(C)c(C)c(=O)[nH]2)cc1	10	4
CC1CC(C)CN(CC(=O)NC(c2cccs2)C(C)C)C1 (configuration not stated)	10	9
CC(=O)c1cccc(NS(=O)(=O)c2cccc(Cl)c2)c1	1	8
CNc1nc(CNc2ncc(Br)cn2)cs1	1	2
CC(=O)N1CCC(Oc2ccc(Cl)cc2C(=O)N(C)Cc2nccn2C)CC1	9	8
CCCCC(=O)Nc1ccc(C)cc1NC(=O)C1CC=CCC1 (configuration not stated)	13	8
Cc1cc(C)cc(NC(=O)/C(C#N)=C/c2c(O)ccc3ccccc23)c1	1	-1
O=C(Nc1cc(F)ccc1F)N1CCCC1c1ccncc1 (configuration not stated)	-8	-8
COc1cc(CNCc2ccc3c(c2)OCO3)cc(Cl)c1OC(F)F	5	7
O=C(Cn1ncccc1=O)N1CCN(c2ccc(-c3ccco3)nn2)CC1	0	9
CC(=O)Nc1cnc(-c2ccccc2CO)cn1	6	2
C#CCC(OC(=O)Cc1ccc(C)c(OC)c1)c1ccccn1 (configuration not stated)	3	-1
Cc1ccc2[nH]c(C(=O)O)c(CN3CCCC(c4ccn[nH]4)C3)c2c1 (configuration not stated)	0	26
COC(=O)CCCNC(=O)c1ccc(Cl)c(S(=O)(=O)N2CCCC2)c1	-3	6
N#CCCn1cc(C(=O)n2nnc3ccccc32)c(-c2cc3ccccc3o2)n1	4	-2
CCC(C)N(Cc1cccc(OS(=O)(=O)CC)c1)C(=O)Nc1ccc(F)c(F)c1 (configuration not stated)	-9	-5
Cc1ccccc1C(NC(=O)C1CCN(CCCc2ccccc2)CC1)c1ccsc1 (configuration not stated)	12	0

Given with two lines to a compound: part of the list above
Sequence of screens – NPYLR7 ag | NPYLR7 ag max-min
Cc1ccc2[nH]c(C(=O)O)c(CN3CCCC(c4ccn[nH]4)C3)c2c1 (configuration not stated)
  0 | 26
COC(=O)CCCNC(=O)c1ccc(Cl)c(S(=O)(=O)N2CCCC2)c1
  -3 | 6
N#CCCn1cc(C(=O)n2nnc3ccccc32)c(-c2cc3ccccc3o2)n1
  4 | -2
CCC(C)N(Cc1cccc(OS(=O)(=O)CC)c1)C(=O)Nc1ccc(F)c(F)c1 (configuration not stated)
  -9 | -5
Cc1ccccc1C(NC(=O)C1CCN(CCCc2ccccc2)CC1)c1ccsc1 (configuration not stated)
  12 | 0

The list goes on:
SMILES	NPYLR7 ag	NPYLR7 ag max-min
COc1c(Cl)cc(C(=O)Nc2nnn(C)n2)cc1Cl	8	5
COc1cccc(COC2CCCN(C(=O)C3CCC3)C2)c1 (configuration not stated)	-8	-1
COC(=O)C1(C(=O)N2CCCN(C)C3(CCN(C)CC3)C2)CC1	2	1
COc1cc(NS(=O)(=O)c2ccc(Cl)cc2)c(OC)cc1Cl	-6	-8
Cc1cccc(OC(C)(C)C(=O)NCc2cccnc2N(C)C)c1	5	4
CNC(=O)CSc1nnc(SCCC(=O)O)s1	-1	-2
Cc1ccccc1CN(CCO)CC1CCC(N)CC1 (configuration not stated)	-2	-6
Fc1c(F)c(N2CCOCC2)c(F)c(F)c1-c1ccccc1	-12	-16
CCc1cc(N2CCN(c3cccc(C(F)(F)F)c3)CC2)nc(SCc2ccc(C(=O)NCC3CCCO3)cc2)n1 (configuration not stated)	13	14
CCC(CC)C1C(C#N)C(=N)SC(=N)C1C#N (configuration not stated)	3	3
O=C(CCCc1cn[nH]c1)N1CCOC(c2ccc(Cl)cc2)C1 (configuration not stated)	41	30
COc1ccc(S(=O)(=O)N2CCOCC2)cc1N1CCN(C(=O)C(Cl)Cl)CC1	-1	-1
Cn1c(=O)[nH]c2cc(C(=O)OCc3ccoc3)ccc21	-1	-3
COc1ccc(C)cc1-c1csc(NC(=O)CCc2cccs2)n1	1	0
O=C1/C(=C/c2cc3c(cc2Cl)OCO3)SC(=Nc2ccccc2)N1c1ccccc1	-5	-9
O=C(Cn1ncn2nc(-c3ccccc3)cc2c1=O)NCCc1ccccc1	-7	-16
O=C(NC1CCC2(CC1)OCCO2)c1ccc(-n2ccc(C(F)(F)F)n2)cc1	7	4
COc1cccc(-c2cc(C(=O)NC(C)C(C)C)n3nc(C(C)(C)C)cc3n2)c1 (configuration not stated)	9	6
COC(=O)c1c(C)[nH]c(C(=O)C(C)OC(=O)C23CC4CC(CC(C4)C2)C3)c1C (configuration not stated)	19	18
O=C(COc1ccc(Cl)cc1)N1CCN(c2nc3nccc(-c4cccc(C(F)(F)F)c4)n3n2)CC1	16	12
O=C(NCCSCc1ccccc1)c1cncn1-c1cccc(-c2ccccc2C(F)(F)F)c1	4	12
COc1cccc(C(=O)ON=C(N)Cc2cccc3ccccc23)c1	-5	-12
COC[C@H]1CCCN1Cc1cccc(C(=O)Nc2ncc(C)s2)c1	3	2
Cc1nccn1CCCNC(=O)CC(C)CCc1ccccc1 (configuration not stated)	1	9
Cc1cc(C)c2[nH]c(O)c(N=NC(=O)COc3ccccc3C)c2c1	1	-6
(cont.)
SMILES	NPYLR7 ag	NPYLR7 ag max-min
COc1ccccc1OCC1CN(C(=O)c2cc(OC)c(C)c(OC)c2)CCO1 (configuration not stated)	5	-1
Cc1cc(NC(=O)c2cc(=O)c3ccccc3o2)n(-c2nc(-c3ccccc3)cs2)n1	-8	-11
N#Cc1c2n(c(=O)n(CC(=O)N3CCN(C(=O)c4ccco4)CC3)c1=O)CCC2	4	4
COc1ccc(Cc2noc(-c3ccc(N4CCCC4)nc3)n2)cc1	4	-1
COc1ccccc1/C=N\NC(=O)CSc1nnc(-c2ccc(OC)c(OC)c2)n1-c1ccccc1	-6	-10
CCc1ncc(C(=O)N2CCOc3c(O)cc(-c4cccnc4)cc3C2)cn1	-16	-15
CCCC(CCC)C(=O)N1CCN(c2nccn2C)CC1	1	6
CCOC(=O)c1c(NC(=O)c2sc(Nc3ccc(F)cc3)c(C(N)=O)c2N)sc2c1CCC2	-6	-11
CCOC(=O)c1ccc(N=c2oc3ccccc3cc2-c2nc3ccccc3[nH]2)cc1	0	7
COc1ccc(NC(=O)CNC(=O)CN(Cc2ccco2)C(=O)c2ccc([N+](=O)[O-])cc2Cl)cc1	19	16
Cc1nn(C)c(C)c1/C=C/C(=O)N1CCCC(C)C1 (configuration not stated)	-1	-2
CC(C)OC(=O)c1ccc(NC(=O)c2cc3ccccc3oc2=O)cc1	0	-4
COc1ccccc1OCCN1CCC(C(=O)NC(c2ccc(C)cc2)c2ccccn2)CC1 (configuration not stated)	-1	4
CC(C)(C)NC(=O)C1(C)CCN1Cc1csc2ccccc12 (configuration not stated)	-2	-4
CCc1nc2c(OCc3cccc(OC)c3)cccn2c1N(C)C(=O)c1ccccc1F	-18	-5
CN(CC1CCCCO1)C(=O)CCn1c(=O)[nH]c2ccccc21 (configuration not stated)	7	5
O=C(CCn1c(=O)oc2ccccc21)Nc1nc2c(s1)CCCC2	2	4
CCNC(=O)NC1CCN(c2ccccc2C(=O)N2CCOCC2)CC1	22	18
CCN(Cc1cccs1)C(=O)NCc1ccc2c(c1)OCO2	5	4
CSC1(SC)C(Oc2ccccc2)C(=O)N1Cc1ccco1 (configuration not stated)	-3	-4
COC(=O)C(Cc1ccccc1)NC(=O)C1CC=CCC1C(=O)N1CCc2ccccc2C1 (configuration not stated)	7	6
CCN(CC)c1c(C)nc2ccc(C(=O)NCC3CCCCC3)cn12	-3	-8
Cc1c(C(=O)NC2(C#N)CCCC2)cnn1-c1cccc(C(F)(F)F)c1	-2	-3
N#Cc1ccc(F)c(COC(=O)c2cncc(Br)c2)c1	-8	-11
CCCCN(CC(=O)N(CCc1ccc(OC)c(OC)c1)Cc1cccs1)C(=O)c1ccccc1F	4	8
Next section:
SMILES	NPYLR7 ag	NPYLR7 ag max-min
OC(COc1ccccc1)CN(CCN1CCOCC1)Cc1cccs1 (configuration not stated)	11	14
O=C(CCN(c1nc(C2CC2)nc2ccccc12)C1CC1)NCc1ccco1	-3	11
CC(C)c1ccc(-n2cc(O)c(C(=O)N3CCS(=O)CC3)n2)cc1	3	1
COc1ccc(CN(CC(C)C)C(=O)C(C)C)cc1OS(C)(=O)=O	12	19
N#Cc1ccc(C(=O)N2CCOC(c3ccccc3)C2)c(F)c1 (configuration not stated)	-3	-1
CN1C[C@H](NC(=O)C(=O)NC2CCCC2)C[C@H]1CO	0	-3
COc1cc2c(cc1O)NC(=O)CC2COCc1ccccc1 (configuration not stated)	1	1
CN(CC(=O)NCC(F)(F)F)C(=O)C1(c2ccccc2F)CCCC1	-1	-2
O=C1OCC2=C1C(c1ccccc1)C1C(=O)OCC1=N2 (configuration not stated)	14	5
CSc1ccc(/C=N\NC(=O)C(NC(=O)c2ccccc2)c2n[nH]c(=O)c3ccccc23)cc1 (configuration not stated)	-6	-13
CC(C)C1=NOC(C(=O)N2CCN(CCn3cncn3)CC2)C1 (configuration not stated)	20	10
CN(C)c1nc2c(c(N(C)C)n1)CCN(S(=O)(=O)N(C)C)C2	1	-3
Cc1ccc2nc(NC(=O)C3CC3c3ccccc3)sc2c1 (configuration not stated)	7	12
CCN(CC)c1ncccc1CNC(=O)c1cc(C2CC2)[nH]n1	-1	-1
COC(=O)c1c(N2C(=O)C=CC2=O)sc2c1CCCC2	8	14
COc1cccc(C(=O)N(Cc2nccn2Cc2ccc(F)c(F)c2)CC2CCCO2)c1 (configuration not stated)	5	6
CCOC(=O)c1sc2nc(C)[nH]c(=S)c2c1C	7	4
COc1ccc(NC(=O)C2CC3CCCCN3C2)cc1S(=O)(=O)N1CCOCC1 (configuration not stated)	0	-5
Cc1cccn2cc(C(=O)N3CCc4c(c(C(=O)O)nn4CC4CC4)C3)nc12	0	-6

These rows are one share of the data; the hit share may differ from the screen's.
